# Bioassay records (PubChem)
# S aureus helic: inhibitors of S. aureus replicative helicase, primary screen, biochemical, fluorescence unwinding readout. replicative DNA helicase (DnaC/DnaB), Staphylococcus aureus. purified S. aureus helicase, fluorescence unwinding assay; about half of the hits fall short of the stated cut. inhibition, %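 (tested at about 80 µM)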. hit rate 0.05% among 120,000;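 active = both duplicates at 50% or more, or one of them with a favoured structure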;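 note: 0% = mean of negative control wells and 100% = mean of positive control wells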
# MgrA-DNA mod: S. aureus MgrA activity modulators, primary screen, biochemical, S. aureus Newman, fluorescence polarization. inhibition, %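 (about 10 µg/mL by stock and volumes)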. hit rate 0.13% among 84,000. AID 602314, 2012. MgrA-DNA binding;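 active = above 50% in either of two replicates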;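 note: 0% = protein plus DNA without compound and 100% = DNA alone without protein; higher means less MgrA bound to DNA so lower polarization; one replicate is shown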
# * marks the source's active call; other numbers are inactive results; / = not tested or not shown; & = joins results of further samples. The list is partial. The share of hits here may be higher or lower than overall.
S aureus helic,MgrA-DNA mod,Structure
9,1.7,COc1ccc(OC)c(NC(=O)C2CCCNC2=O)c1 (stereo unspecified)
-3,-4.4,NS(=O)(=O)c1ccc(CCNCc2ccccn2)cc1
/,-1.0,CCOC(=O)CSc1nc2cc(Cl)c(Cl)cc2n1CC
-3,/,Cc1cccc(S(=O)(=O)NC2CCCCC2C)c1 (stereo unspecified)
13,/,Cc1c(NC(=O)COCc2cc(-c3cccs3)on2)c(=O)n(-c2ccccc2)n1C
-10,/,CCC(C(=O)Nc1cccc(C(=O)NC2CC2)c1)n1nnc(-c2ccc(Cl)cc2)n1 (stereo unspecified)
12,3.1,COc1cccc(-c2nn3c(Cc4ccccc4)nnc3s2)c1
7,/,COc1ccccc1OCCn1c(=N)n(CCOc2ccccc2)c2ccccc21
-3,/,CCOc1ccccc1N1CCN(C(=O)[C@@H]2CCCN2C(=O)c2cccs2)CC1
10,0.1,COc1ccc(CCN(C)C/C=C/c2ccc(N(C)C)cc2)cc1OC
9,1.0,CCOc1cc(CN2CCCCC2)ccc1OC
8,/,CN=c1scc(-c2ccc(Br)s2)n1/N=C/c1ccc(OCC(=O)N2CCOCC2)c(OC)c1
9,-0.4,CCOC(=O)Cn1c(=O)oc2cc(S(=O)(=O)NCC3CCCO3)ccc21 (stereo unspecified)
10,/,COC(CNC(=O)c1c(O)nc2ccccn2c1=O)OC
14,1.2,CCc1cccc(CC)c1NC(=O)COC(=O)c1cccs1
12,3.9,Cc1ccn2cc(C(=O)NCc3ccccc3)nc2c1
-19,1.8,Cc1ccc(C(C)C)c(OCCn2ccnc2)c1
-17,/,COC(=O)c1ccc(CN2CCC(c3nc4ccccc4s3)CC2)o1
0,-5.6,CC1CCCCN1C(=O)Nc1cccc(C(F)(F)F)c1 (stereo unspecified)
/,0.7,C=CCn1c(=O)sc2ccccc2c1=O

# Sorted by molecular weight (smallest number first): part of the list above
S aureus helic,MgrA-DNA mod,Structure
10,/,COC(CNC(=O)c1c(O)nc2ccccn2c1=O)OC
14,1.2,CCc1cccc(CC)c1NC(=O)COC(=O)c1cccs1
/,-1.0,CCOC(=O)CSc1nc2cc(Cl)c(Cl)cc2n1CC
-3,/,CCOc1ccccc1N1CCN(C(=O)[C@@H]2CCCN2C(=O)c2cccs2)CC1
13,/,Cc1c(NC(=O)COCc2cc(-c3cccs3)on2)c(=O)n(-c2ccccc2)n1C

# Other compounds follow:
S aureus helic,MgrA-DNA mod,Structure
1,/,O=C(NS(=O)(=O)c1cccs1)c1ccccc1Cl
/,-0.5,O=C(NCCc1ccccn1)c1cn(S(=O)(=O)c2ccccc2)c2ccccc12
12,-2.9,O=C(Cn1nnc(-c2ccncc2)n1)NCCc1ccccc1
-9,/,CCCCCC(=O)Nc1cc2c(cc1C(=O)O)OCCO2
8,1.9,Cc1cccc(N2C(N)=NC(N)=NC23CCCCC3)c1
-1,/,COc1ccc(C)cc1NC(=O)CSC1CCCC1
6,0.8,O=C(Nc1ccc(N2CCN(C(=O)c3ccccc3)CC2)cc1)c1ccccc1
-16,0.2,O=C(O)Cn1cnc2ccccc2c1=O
/,0.5,Cc1cc(-c2ccccn2)n[nH]c1=O
/,1.7,COc1cc(C=C2C(=O)N(C)C(=O)N(C)C2=O)ccc1OC(=O)c1cc(F)c(F)cc1Cl
/,0.3,FC(F)(F)c1cnc(Sc2cccs2)c(Cl)c1
/,-2.8,O=C1Nc2ccccc2C1Cc1ccc(Cl)cc1 (stereo unspecified)
/,-0.5,O=C(Oc1ccccc1N1CCOCC1)C1=Cc2cc(Cl)ccc2OC1
0,/,CCOC(=O)C1CCN(C(=O)CSCc2ccccc2)CC1
13,2.6,CCN1CCN(C(=O)c2cccs2)CC1
13,/,O=C(NCCN1CCN(c2ccccc2)CC1)c1ccccc1F
-1,0.0,COC(=O)c1ccc(N2C(=O)CC(SCCc3nc4ccccc4[nH]3)C2=O)cc1 (stereo unspecified)
-5,-5.8,COc1ccccc1N=C(NO)c1nonc1N
-29,-0.9,O=C(COC(=O)c1cncc(Br)c1)Nc1ccccc1
10,1.5,N=C1/C(=C/c2ccc(SCc3ccccc3)o2)C(=O)N=C2SC=CN12
-1,/,O/N=C1/C2CC3C1C14CC(C2/C1=N\O)C34 (stereo unspecified)
-5,0.2,COc1ccc(-c2csc(C(C#N)=C3CCCCC3)n2)cc1
/,0.5,NC(=O)CNC(=O)CSc1ccccn1
14,/,CCOC(=O)C1C(=O)Oc2ccc(Br)cc2C1C1(C(=O)OC)CCCC1 (stereo unspecified)
-8,2.0,COC(=O)c1ccc2c(c1)C(=O)N(C1CCCCC1)C2=O
0,/,COc1ccc(Cl)cc1NS(=O)(=O)N(C)C
1,/,COC(=O)Cn1cc(C(=O)C2CC2)c2ccccc21
13,/,CC(OC(=O)c1cccnc1SC(C)C(N)=O)C(N)=O (stereo unspecified)
0,/,C=CCNc1ncnc2ccccc12
11,1.3,COC(=O)C1=C(C)Nc2c(c(=O)n(C)c(=O)n2C)C1c1cccc(OCc2ccccc2)c1 (stereo unspecified)
/,0.3,c1cc(-c2ccncc2)ccn1
6,2.8,CCOC(=O)/C=C1\CC(=O)Nc2cc(C)c(C)cc2N1
-7,-1.4,Cc1ccc(OCc2nnc(SCC(=O)Nc3ccc4c(c3)OCO4)n2C(C)C)c(C)c1
0,/,CCOC(=O)c1c[nH]c2cc(F)cc(F)c2c1=O
1,-2.8,CCNC(=O)c1cccc(OC)c1
/,-3.8,Cc1ccc(N=Nc2c(O)[nH]c3ccc(F)cc23)cc1
10,/,Cn1c(=O)c(=O)n(C)c2cc(S(=O)(=O)CCC(=O)N3CCOc4ccccc43)ccc21
/,-1.2,COC(=O)c1sccc1-c1ccc(-c2ccn[nH]2)o1
-8,0.6,O=C(c1cc[n+]([O-])cc1)N1CCCCCC1
1,6.1,CC(CNC(C)c1ccccc1)C(=O)O (stereo unspecified)
-16,/,N#Cc1ccc(CO/N=C(\N)c2ccccc2)cc1
19,1.9,O=C(NN=c1c(=O)c2ccccc2c1=O)c1ccncc1
13,/,NC(=O)Cn1cc(C(=O)c2cccs2)c2ccccc21
-11,/,S=c1[nH]c(-c2ccccc2)cn1/N=C/c1ccc(N2CCOCC2)cc1
5,/,Cc1csc(NC(=O)NCC2CCCC(CNC(=O)Nc3nc(C)cs3)C2)n1 (stereo unspecified)
9,-1.0,CCOc1ccc(NC(=O)CC(C)Cc2cc(C)cc(C)c2)cc1 (stereo unspecified)
10,-0.8,CCOC(=O)c1ccc(NC(=O)NC2CC3CCC(C2)N3C(=S)NCc2ccco2)cc1 (stereo unspecified)
14,3.0,CCOC(=O)/C=C(\C)Nc1ccc(CC)cc1
14,/,Cc1ccc(C2(c3ccc(C)cc3)NC(=O)N(Cc3c(C)noc3C)C2=O)cc1
-4,0.2,CC(=O)Oc1ccc2occ(C(=O)c3ccc(Cl)cc3)c2c1

# Next part
S aureus helic,MgrA-DNA mod,Structure
17,/,O=C(O)CSc1nn(-c2ccccc2)c(=S)s1
14,4.4,Cc1cc(C)c(C(=O)/C=C(\N2CCCC2)C(F)(F)F)c(=O)[nH]1
24,/,Cc1cccc2nc(CSc3nncn3-c3ccccc3)cn12
-3,0.3,COc1ccc(NC(=O)C2CCN(c3nc(C)nc4c3CCC4)CC2)cc1
-15,/,COc1cc2nc(CN3CC(C)OC(C)C3)[nH]c(=O)c2cc1OC (stereo unspecified)
4,/,CCC(=O)NNc1ncnc2c1cnn2C
9,/,CC(C)c1nnc(NC(=O)COc2ccc(Cl)cc2)s1
14,-0.7,CC1=C(C(N)=O)C(c2ccc(C)o2)C(C(N)=O)=C(C)N1
-16,/,O=C(CCN1CCCC1)Nc1ccc2c(c1)OCO2
12,4.0,Cc1ccc(C(=O)Oc2ccc3oc(=O)sc3c2)cc1

# Reprinted from the part before: six compounds, followed by the next part.
S aureus helic,MgrA-DNA mod,Structure
-15,/,COc1cc2nc(CN3CC(C)OC(C)C3)[nH]c(=O)c2cc1OC (stereo unspecified)
4,/,CCC(=O)NNc1ncnc2c1cnn2C
9,/,CC(C)c1nnc(NC(=O)COc2ccc(Cl)cc2)s1
14,-0.7,CC1=C(C(N)=O)C(c2ccc(C)o2)C(C(N)=O)=C(C)N1
-16,/,O=C(CCN1CCCC1)Nc1ccc2c(c1)OCO2
12,4.0,Cc1ccc(C(=O)Oc2ccc3oc(=O)sc3c2)cc1
14,/,COC(=O)c1ccc(COc2ccc(-c3nn[nH]n3)cc2)cc1
2,/,Cc1cc(C(=O)N/N=C2\C(=O)c3cccc4cccc2c34)c(C)o1
3,2.7,N=C1SC(c2ccccc2)C(=O)N1c1nccs1 (stereo unspecified)
-3,/,CC(C)C1Cc2c(sc3nc(SCC(=O)O)n(-c4ccccc4)c(=O)c23)CO1 (stereo unspecified)
14,/,CC(C)CNC(=O)c1c(N)n(/N=C/c2ccncc2)c2nc3ccccc3nc12
/,-1.5,O=C(O)CNC(=O)c1cccc(C(F)(F)F)c1
-7,/,Cc1nn(C(=O)c2ccoc2C)c(N)c1-c1ccccc1
1,-2.3,Cc1ccnc(NC(c2ccc(Cl)cc2)n2nc(C)cc2C)c1 (stereo unspecified)
3,0.4,Cc1cccc(-n2c(O)c(C3=c4ccccc4=NC3=O)sc2=S)c1
29,/,CCCC1Cc2[nH]c(=O)c(C#N)cc2CO1 (stereo unspecified)
/,-1.9,CN(NS(=O)(=O)c1ccccc1C(F)(F)F)c1cnc2ccccc2n1
0,/,Cc1ccc(C(=O)CC(SCc2ccco2)c2cccs2)cc1 (stereo unspecified)
4,/,C=CCNC(=O)CSc1nc(O)cc(=O)[nH]1
7,0.1,COc1ccc(/C=N/c2nc3ccccc3n2CCN2CCCCC2)cc1OC
-12,0.3,COc1ccc(NC(=O)C2CSC(C)(C)N2C=O)cc1 (stereo unspecified)
1,0.9,Cc1csc(NC(=O)/C=C\C(=O)O)n1
8,2.9,CCOC(=O)c1cccc(NC2=NC3(CCCCC3)N=C(N)N2)c1
/,0.1,CC1=C(C#N)C(c2ccc(-c3ccc(OC(F)(F)F)cc3)o2)C2=C(CCCC2=O)N1 (stereo unspecified)
8,3.5,COc1ccc(-c2cc(C(F)(F)F)n3nc(C(=O)NCCN4CCOCC4)c(Br)c3n2)cc1
-50,/,CN1/C(=C/C=C(C#N)C#N)C=Cc2ccccc21
16,-1.9,CC(=O)NC(Cc1cccc(C)c1)C(=O)NC1CCN(c2nc(C)cc(C)c2C#N)CC1 (stereo unspecified)
-8,/,O=C(CCOc1ccccc1)OCc1ccccc1F
-22,/,COc1cccc(NC(=O)N2Cc3ccccc3Oc3ncccc32)c1
-17,/,CCN1/C(=N\N)c2cccc3cccc1c23
/,1.6,O=c1c2c3c(sc2[nH]c(=S)n1-c1ccccc1)CCC3
20,/,O=C(c1ccc(N2CCCS2(=O)=O)cc1)N1CCCC1
2,-1.4,CS(=O)(=O)NCCOc1ccccc1
/,0.1,O=C1NCC(NC(=O)C(F)(F)F)c2cc3c(cc21)OCO3 (stereo unspecified)
1,-0.5,Cc1ccc(C2=NNC(C(O)C(O)C(O)C(C)O)S2)cc1 (stereo unspecified)
/,-2.9,O=C(CSC(=S)N1CCCCC1)c1c(F)cccc1F
11,/,COc1cc(-c2nnc(CSc3nnc(C)s3)o2)cc(OC)c1OC
3,0.5,CCc1ccc(-c2nc3ccccc3c(=O)o2)cc1
5,/,O=C(CN1C(=O)S/C(=C\c2ccc(F)cc2)C1=O)Nc1ccc(S(=O)(=O)NCc2ccco2)cc1
-19,1.9,Cc1nn(CCC#N)c2nc(-c3ccccc3)cc(C(F)(F)F)c12
10,-1.8,Cc1ccc2c(c1)C(=O)CCCC1C(=O)N2CCN1C(=O)c1ccccc1 (stereo unspecified)
/,0.4,Cc1cc(C)nc(NS(=O)(=O)c2ccc(NC(=O)C34CC5CC(CC(C5)C3)C4)cc2)n1
17,-9.2,CCc1ccc(OCCCC(=O)Oc2ccc3c(c2)oc(=O)c2ccccc23)cc1
-21,/,CNc1c(NC(=O)C(C)(C)C)c(=O)oc2ccccc12
12,-3.8,c1ccc(OC2OCCOC2Oc2ccccc2)cc1 (stereo unspecified)
-382,/,N#CCc1c(C#N)c(N)nc(SC(=N)N)c1C#N
11,/,Cc1cnc(NC(=O)Cc2ccc(OCc3c(C)noc3C)cc2)s1
/,-0.9,CCCCOC(=O)c1cc(-c2ccc(/C=C3\NC(=S)NC3=O)o2)ccc1Cl
/,-8.1,Cn1ncc(Br)c1N1C(=O)C=CC1=O
-1,/,CCN(CC)c1ccc(O)c(C=Nc2ccc(S(N)(=O)=O)cc2)c1
/,0.3,Cc1nn(C)c(=O)c(N)c1-c1cc(-c2ccsc2)n[nH]1
0,/,COc1ccc(-c2cc(C(=O)OCC(=O)NCc3ccco3)c3c(C)nn(-c4ccccc4)c3n2)cc1
/,0.6,N#CCC(=O)Nc1cccc(C(F)(F)F)c1
/,-1.0,CN(C)S(=O)(=O)c1ccc(C(=O)Nc2nnc(C34CC5CC(CC(C5)C3)C4)s2)cc1
7,/,Cn1c(=O)c2c(nc(SCCNS(=O)(=O)c3ccccc3)n2C)n(C)c1=O
/,3.6,N#CC1=C(SCC(=O)OCc2ccccc2)NC(=O)CC1c1cccc([N+](=O)[O-])c1 (stereo unspecified)

# Later entries.
S aureus helic,MgrA-DNA mod,Structure
14,-5.2,O=C(O)CSc1c2c(nc3cc(C(=O)NCc4ccc(F)cc4)ccc13)CCCC2
1,/,Cc1ccc2c(CSc3cccc[n+]3[O-])cc(=O)oc2c1
-19,4.2,COc1cc2c(cc1NC(=O)CSc1nnc(Cc3cccs3)n1Cc1ccco1)oc1ccccc12
27,19,O=C1N=c2ccccc2=C1c1c(O)n(-c2cccc(F)c2)[nH]c1=O
-2,/,Cc1cc(C)n(-c2ccc(C(=O)OCC(=O)NCC3CCCO3)cc2)n1 (stereo unspecified)
21,/,CCS(=O)(=O)c1nc(S(=O)(=O)c2ccc(Cl)cc2)c(N2CCN(CCO)CC2)s1
1,/,N/C(=N\OCc1noc(-c2ccsc2)n1)c1ccc(C(F)(F)F)cc1
/,-3.0&-1.7,Nc1ccc(N=Nc2ccccc2)c(N)n1
